Screens from PubChem BioAssay.
VACV Venus inh = inhibitors of vaccinia virus (Venus reporter); Potency, µM (top dose mostly 36.5 µM), inactives show at the top dose activity change, negative = inhibition, actives largely listed as inhibitors; actives 0.46% (n = 330,000); AID 720580; Vaccinia virus Venus reporter expression, fluorescence; active means well fitted inhibition curve with a large enough effect; inconclusive means small, poorly fitted or top-dose-only effect; inactive means no such curve, though single readings can be large or run the other way; tested in A549 cells; also: nearly all actives have a fitted effect of over 30% in size; inactives centre near -10
Vaccinia mCherry = vaccinia inhibition (mCherry reporter). actives 0.63% (n = 310,000). Vaccinia virus mCherry reporter infection, fluorescence; about a quarter of the inactives have no number. AID 720579. Potency, µM (doses to about 36.5 µM), for the others: at the highest dose activity change, negative = inhibition, most hits filed as inhibitors; active = well fitted inhibition curve with a large enough effect; inconclusive = small, poorly fitted or top-dose-only effect; inactive = no such curve, though single readings can be large or run the other way; tested in A549 cells; also: nearly all actives have a fitted effect of over 35% in size; inactives centre near -10
The depositor's hits bear a star; i = inactive; ? = inconclusive; / = no result given; [ ] = another dose, or the depositor's remark. % is scaled to controls: 0 for no effect and ±100 for the full control effect; potency is read from the fitted curve at half-maximal effect.

Structure | VACV Venus inh | Vaccinia mCherry
O=C1Cc2cc(S(=O)(=O)N3CCCCC3)ccc2N1 | -28% | -27%
CCCNC(=O)C1(CC2CC(c3ccccc3)=NO2)CCN(C(=O)Cc2ccc(F)cc2)CC1 (configuration not stated) | -9% | 9%
CC(=O)c1ccc(N2CCN(C(=O)c3ccc(Br)cc3)CC2)c(F)c1 | -9% | /
OC(C#CCN1CCCC1)c1ccccc1 (configuration not stated) | -6% | -11%
Cc1ccc(C(=O)Nc2cccnc2)cc1Cl | -16% | -1%
COC(=O)c1sc2ccccc2c1NC(=O)c1ccc(S(=O)(=O)N2CC(C)CC(C)C2)cc1 (configuration not stated) | -6% | -8%
Cn1cc(CN2CCCC(C(=O)Nc3cccc(-c4cc5ccccc5[nH]4)c3)C2)cn1 (configuration not stated) | ? | ?
CCOC(=O)[C@@H]1[C@H]2COc3ccccc3[C@@H]2N2C(=O)N(c3cccc(C)c3)C(=O)[C@@]12C | -7% | -1%
O=c1c2c([nH]c3ccccc13)C(=C1CCCC1)CC2 | -6% | -19%
CCOc1ccc(C(=O)OCC(=O)N2CCCC2)cc1 | -12% | -29%
Cc1ccc(S(=O)(=O)N2CCN(C(=O)COC(=O)CC(C)c3ccccc3)CC2)c(C)c1 (configuration not stated) | -13% | -10%
CC(=O)OC(C(=O)NCCN1CCOCC1)c1c(F)cccc1F (configuration not stated) | -14% | -14%

The last 5 records of the part before are carried over, then new ones follow.
Structure | VACV Venus inh | Vaccinia mCherry
CCOC(=O)[C@@H]1[C@H]2COc3ccccc3[C@@H]2N2C(=O)N(c3cccc(C)c3)C(=O)[C@@]12C | -7% | -1%
O=c1c2c([nH]c3ccccc13)C(=C1CCCC1)CC2 | -6% | -19%
CCOc1ccc(C(=O)OCC(=O)N2CCCC2)cc1 | -12% | -29%
Cc1ccc(S(=O)(=O)N2CCN(C(=O)COC(=O)CC(C)c3ccccc3)CC2)c(C)c1 (configuration not stated) | -13% | -10%
CC(=O)OC(C(=O)NCCN1CCOCC1)c1c(F)cccc1F (configuration not stated) | -14% | -14%
O=C(CCn1c(=O)c2cccn2c2cccnc21)NCc1ccccc1F | 2% | -10%
CCc1ccc(NC(=O)C(=O)NCC(O)c2ccccc2)cc1 (configuration not stated) | 16% | -5%
Cc1cc(OCCCn2c(CCNC(=O)C3CCCCC3)nc3ccccc32)ccc1Cl | -11%[7.34 µM] | -7%[7.34 µM]
Cc1cc(NC(=O)c2c(Br)c(C)nn2C)no1 | -11% | -11%
COc1ccc(C/C(N)=N/OC(=O)c2cccc([N+](=O)[O-])c2)cc1 | -14% | -12%
CC(OC(=O)C1CC(=O)N(Cc2ccccc2)C1)C(=O)Nc1cccc(C#N)c1 (configuration not stated) | -10% | -12%
NS(=O)(=O)c1ccc(NC(=O)CSc2n[nH]c(=O)n2Cc2ccccc2)cc1 | 5% | -3%
Nc1ccccc1S(N)(=O)=O | -4% | 0%
COc1cc(CCCN2CCNC[C@@H]2C(C)O)cc(OC)c1OC (some centres not stated) | -12% | i
CCOc1ccc(S(=O)(=O)N2CCC(C(=O)NCc3ccccn3)CC2)cc1C | -27% | -23%
COC(=O)NNC(=O)COc1ccccc1C | -5% | -13%
O=C(C[C@H]1C/C=C\C[C@H](NC(=O)OCC2c3ccccc3-c3ccccc32)C(=O)OC[C@@H]2CCCN2C1=O)N[C@H](CO)Cc1ccccc1 | -7% | -1%
Cc1ccc(C)c(S(=O)(=O)c2nnn3c2nc(NCc2ccc4c(c2)OCO4)c2sccc23)c1 | ? | -26%
CCOc1ccc(C(=O)Nc2nc(-c3ccc(Br)cc3)ns2)cc1 | -13% | -10%
CCOc1cc(C=NNC(=O)N(c2ccccc2)c2ccccc2)ccc1O | -8% | -15%
N/C(Cc1ccccc1)=N\OC(=O)c1cccc2ccccc12 | -6% | ?
O=C(O)c1cccc(NC(=O)c2cn(-c3ccccc3)nc2-c2cccc(Br)c2)c1 | -3% | -12%
O=C(O)CCCCCCCCCCP(=O)(c1ccccc1)c1ccccc1 | -6% | 4%
Cc1cc(Cl)c(S(=O)(=O)N(C)C)cc1OCC(N)=O | -13% | -22%
O=C(NC1CCN(S(=O)(=O)c2ccc(Cl)cc2)CC1)c1cccnc1 | -16% | -16%
O=C(O)c1ccc(N/N=C/c2cn(Cc3ccccc3F)c3ccccc23)cc1 | 0%[7.34 µM] | ?
Cc1ccc(-c2cn3cccnc3n2)cc1NC(=O)C(C)(C)Oc1ccc(Cl)cc1 | -10% | -17%
C[C@H](CO)N1C[C@H](C)[C@@H](CN(C)C(=O)Oc2cccc3ccccc23)OCc2cn(nn2)CCCC1=O | -16% | -9%
CC(=O)c1ccc(N2CCN(C(=O)c3cccc(Oc4ccccc4)c3)CC2)cc1 | -24% | -12%
N#Cc1nc(Cc2cccc3ccccc23)oc1NCCCn1ccnc1 | ? | /
COCCCNC(=O)CCn1c(=O)c2ccccc2n(Cc2cccc([N+](=O)[O-])c2)c1=O | 4% | i
COc1cccc(CN2CCNC(=O)C2CC(=O)NCc2cn3ccccc3n2)c1OC (configuration not stated) | -10% | 3%
CC(C)Cn1c(N)c(C(=O)COC(=O)c2ccc([N+](=O)[O-])o2)c(=O)n(C)c1=O | -29% | ?
CCc1cccc(C)c1NS(=O)(=O)c1ccc(-c2cc(C)no2)s1 | -21% | -1%
O=C(COC(=O)c1cc(S(=O)(=O)N2CCOCC2)ccc1O)NCC1CCCO1 (configuration not stated) | -1% | /
O=C(NC(Cc1cc(=O)[nH]c2ccccc12)C(=O)O)c1ccc(Cl)cc1 (configuration not stated) | -10% | -12%
CCOc1ccc(-c2[nH]nc3c2C(c2cccnc2)C(C#N)=C(N)O3)cc1 (configuration not stated) | -6% | /
Cc1ccc(NC(=O)c2ccc(OCC3CCCO3)cc2)c(C)c1 (configuration not stated) | -5% | -8%
COc1ccc(NC(=O)C(=O)NCC2(c3ccc(OC)c(OC)c3)CCCC2)cc1 | -22% | -30%
O=c1oc(Nc2cccc(F)c2)nc2ccccc12 | -12% | /
COC(=O)[C@@H]1Cc2c([nH]c3ccccc23)C2CCC(=O)N21 (some centres not stated) | -4% | -17%
O=C(Cc1coc2cc3c(cc12)CCC3)OCC(=O)N1CCCC1=O | -11% | i
COc1ccccc1C(=O)Nc1c(C(=O)N2CCN(c3ccc(F)cc3)CC2)oc2ccccc12 | 1% | -16%
CS(=O)(=O)c1ccc(C(=O)N2CC(=O)Nc3ccccc32)cc1 | 0% | -2%
CCCCc1c(O)nc(SCC(=O)c2ccccc2)n(-c2ccccc2OC)c1=O | -8% | i
CC(CCc1ccccc1)NC(=O)C1CCC1 (configuration not stated) | -7% | -11%
COc1ccccc1-n1nnnc1SCc1cc2c(cc1Br)OCO2 | -16% | /
O=C(Cn1ccc2cc(S(=O)(=O)N3CCCC3)ccc21)NCc1ccccc1 | -9% | -2%
O=C(CCS(=O)(=O)c1nc(-c2ccc3c(c2)OCO3)cc(C(F)(F)F)n1)Nc1ccc(Br)cc1 | -12% | i
CCOC(=O)c1c(NC(=O)C2=C(C)NC(=S)NC2c2ccc(F)cc2F)sc(C)c1C (configuration not stated) | -16% | -28%
Cc1ccc(S(C)=O)cc1-n1c(=O)n(Cc2ccccc2)c(=O)c2[nH]cnc21 (configuration not stated) | -7% | -19%
C[C@H](NC(=O)OC(C)(C)C)[C@@H](O)c1ccco1 | -7% | i
COc1ccc(OC)c(C(O)c2ncc(-c3ccccc3Cl)[nH]2)c1 (configuration not stated) | -16% | 29%
Cc1onc2c(=O)n(-c3ccccc3)nc(-c3ccccc3)c12 | -14% | -14%
CCCOc1ccc(/C=C/C(=O)N2CCN(C(=O)c3ccco3)CC2)cc1OC | -10% | -2%
CCOC(=O)N1CCC(NC(=O)c2cc(C(=O)NCc3ccc(F)cc3)ccc2CO)CC1 | -15% | i
CC(=O)Nc1ccc(S(=O)(=O)NCCC(=O)OCc2csc(CC(=O)Nc3ccccc3C)n2)cc1 | -9% | -9%
CCCCn1c(O)c(C=NCCCn2ccnc2)c(=O)[nH]c1=O | ? | -8%
CCCN1C(=O)/C(=C/c2nc3ccccc3c(=O)[nH]2)c2ccccc21 | -7% | -11%
O=C(NCCc1c[nH]c2ccccc12)c1cncc(Br)c1 | -11% | i
CCO[C@@H]1OC(C(=O)O)=C[C@H](c2ccc(C(F)(F)F)cc2)[C@H]1CCCO | -6% | -5%
CC[C@H](C)/C=C(C)/C=C/C1=CC2=C(Cl)C(=O)[C@](C)(OC(C)=O)C(=O)C2=CO1 | ? | ?
CCOc1cc(C(=O)Nc2ccc(F)cc2)cc(Br)c1OC | -9% | -3%
O=C(O)c1ccc2c(c1)C1C(Cl)C(Sc3ccccc3[N+](=O)[O-])CC1C(c1cccc([N+](=O)[O-])c1)N2 (configuration not stated) | -6% | -5%
COc1ccc(C(C)(NC(C)=O)c2nc(-c3cccc(NC(C)=O)c3)cs2)cc1 (configuration not stated) | 3% | 15%

Next structures.
Structure | VACV Venus inh | Vaccinia mCherry
COC(=O)[C@]1(Cc2ccccc2)N[C@H](CN(C)S(=O)(=O)c2ccc(C(C)(C)C)cc2)[C@@H]2C(=O)N(C)C(=O)[C@@H]21 | -24% | i
COc1ccccc1NC(=O)N1CCN(c2ccc3nncn3n2)CC1 | 4% | 8%
NC(=O)c1ccccc1NC(=O)CCCCCn1nnc2ccccc2c1=O | ? | i
COC(=O)c1c(SCC(=O)Nc2cc(F)ccc2F)[nH]c2ccc(C)cc2c1=O | ? | ?
Cc1ccc2oc(=O)c(/C=C(\O)c3ccco3)nc2c1 | -16% | -17%
CCCCc1ccc(NC(=S)N2CCCC2)cc1 | -16% | -12%
CCCCOC(=O)Nc1nnc(CC)s1 | -16% | -1%
CCOc1ccc(-c2nc3c(s2)CCc2onc(-c4ccc(OC)cc4)c2-3)cc1 | -19% | -24%
COCCCNC(=S)N(Cc1ccccc1)Cc1ccc(F)cc1 | -10% | 0%
COc1ccc2cc(CCNC(=O)C(C)(C)C)c(=O)[nH]c2c1 | -11% | -19%
Cc1ccc([C@@]2(OC(=O)c3ccccc3)C(=O)N(C(=O)OC(C)(C)C)c3ccccc32)cc1 | 3% | 12%
CN(C)c1cccc(N(C)C)c1CNC(=O)C(C)(C)C | -11% | -24%
CN(C)c1ccc(C(=N)Cc2ccc3ccccc3n2)cc1 | 41%[activator] | ?
Cc1ccc(F)cc1NC(=O)COC(=O)c1ccc(S(C)(=O)=O)c([N+](=O)[O-])c1 | -18% | -16%
Cc1ccccc1N1CCN(S(=O)(=O)C[C@]23CCC(CC2NC(=O)[C@@H](N)CCS(C)(=O)=O)C3(C)C)CC1 (some centres not stated) | -16% | -4%
CCOC(=O)C(=O)N1CCC(C(=O)OC)CC1 | -5% | -13%
Cn1ncc2c(=O)[nH]cnc21 | 1% | i
Cc1nn(Cc2ccccc2Cl)c2sc(C(=O)NC(C)(C)C)cc12 | -26% | ?
COC(=O)c1cc(NC(=O)Cn2nc(-c3ccc(C)c(C)c3)ccc2=O)cc(C(=O)OC)c1 | -18% | ?
COc1ccc(C(CC(=O)Nc2ccc(Br)cn2)N2Cc3ccccc3C2=O)cc1 (configuration not stated) | -7% | -11%
CCCCC1=CC2=CC(=O)C(C)(OC(=O)CC)C(=O)C2=CN1C(CO)CO (configuration not stated) | -3% | i
CCOC(=O)c1cc2c(=O)n3ccccc3nc2n(C(C)C)c1=NC(=O)c1cc2ccccc2o1 | 10% | -5%
COc1ccc(/C=N/Nc2nncn2N)cc1Br | ? | -11%
COc1cc2c(C(=O)NCc3ccc4c(c3)OCO4)cn(C)c(=O)c2cc1OC | -8% | i
CN(C(=O)COC(=O)/C=C/c1ccc(S(=O)(=O)N2CCc3ccccc32)cc1)C1CCS(=O)(=O)C1 (configuration not stated) | -14% | -9%
Cc1ccc(Cl)cc1N1CCN(C(c2ccc(C#N)cc2)c2nnnn2C2CCCC2)CC1 (configuration not stated) | 3% | 5%
CC(Sc1nnnn1C1CC1)C(=O)Nc1cccc(S(=O)(=O)N2CCOCC2)c1 (configuration not stated) | -9% | -8%
COCCN1C(=O)CCC1(C)c1nnnn1Cc1ccccc1 (configuration not stated) | -4% | -13%
C/C(=N\NC(=O)Cc1c(C)[nH][nH]c1=O)c1cccc(Br)c1 | -9% | -14%
CC(C)(C)c1cc[n+](-c2nc([O-])sc2C=O)cc1 | 1% | 0%
CCOc1ccc(S(=O)(=O)NCc2ccc(F)cc2)c2cccnc12 | -22% | -21%
CCOC(=O)c1c(S(=O)(=O)N2CCN(c3ccccc3OC)CC2)c(C)n(C)c1C | -19% | i
CCOc1ccc(C(=O)NC(C(=O)NCc2ccccn2)C(C)C)cc1 (configuration not stated) | -5% | -1%
Nc1nc(NCCCN2CCOCC2)nc(Nc2ccc(Cl)cc2)c1[N+](=O)[O-] | -3% | -2%
Cc1ccc(OCCNC(=O)CNC(=O)Cc2cccc3ccccc23)cc1 | -10% | -6%
O=C(OCC(=O)N(C1CCCCC1)C1CCCCC1)c1cnccn1 | -11% | -17%
CC(C)=C1SC(N2CCN(c3cccc(C)c3)CC2)=NC1=O | -10% | i

The order is random; 0.88% or so of the library scored in one or more.
